# High-throughput results deposited in PubChem BioAssay by several laboratories.
# RanGTP-Imp inh: disruptors of Ran-importin-beta complex formation – biochemical, FRET, CFP-Ran, YFP-importin-beta, homogeneous, primary screen; AID 2216; cell-free CFP-Ran/YFP-importin-beta FRET ratio; inhibition, % (no concentration beside the values); 300,000 compounds, 1.1% hits;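 active = most replicates above 15%; inconclusive = exactly half above 15%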;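 also: 0% = DMSO wells and 100% = Ran loaded with GDP instead of GTP; wells of about 40 µL received 100 nL stock; the first replicate is given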
# Vif A3G: inhibitors of Vif binding to APOBEC3G peptide, primary screen, biochemical, TR-FRET, GST-Vif 1-94, biotin-A3G peptide, dose response retest (AID 1117319); 260,000 compounds, 0.57% hits; one-dose inhibition, %; IC50 in µM for titrated hits; TR-FRET GST-Vif / biotin-A3G peptide binding; higher % means a stronger effect; test concentration not given here; strong numbers were not always called active;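 active = above the screen mean plus three standard deviations and confirmed in dose response; inconclusive = results disagree or hit not tested in dose response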;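 also: Vif residues 1-94 fused to GST binding biotinylated APOBEC3G peptide 110-148; 0% = full assay without inhibitor and 100% = GST in place of GST-Vif; retest series ran down from 100 µM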
# LANA-H2B inh: blocks KSHV LANA binding to histone H2A/H2B; 320,000 compounds, 0.6% hits; Q9QR71; inhibition, % (test concentration not listed); cell-free LANA-H2A/H2B peptide, fluorescence polarization; AID 2629; in the data active = inhibition mostly above about 10%, no sharp cut-off; inactive = mostly below about 6.7%;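 also: stock transfer was 7.5 nL into about 10 µL; 0% = median of vehicle wells and 100% = median of positive control wells; one replicate is shown; the record names a cut of 25% in any replicate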
# Calb FLC: C. albicans growth modulation with fluconazole; growth inhibition, % (test concentration not listed); 300,000 compounds, 0.57% hits; C. albicans CaCi-2 (fluconazole-resistant clinical isolate) + fluconazole, Alamar Blue growth, 48 h; AID 1979;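 active = most replicates above 75%; inconclusive = exactly half above 75%; inactive = most below 75%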;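 also: all wells also contain fluconazole at 8 µg/ml as a sub-toxic cotreatment; 0% = median of DMSO wells and 100% = median of geldanamycin control wells; wells of about 8 µL received 7.5 nL stock; the first replicate is given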
# A1 inh: inhibitors of the anti-apoptotic protein A1, read as caspase activation | MEF A1-2A-BIM cells, Caspase-Glo 3/7 luminescence, 3 h; percent of clofoctol response, vehicle zero | caspase activation, % (no concentration beside the values) | 330,000 compounds, 0.066% hits | AID 2462;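 active = over half of replicate activation scores above 10%, or exactly half above 10 with the replicate mean above 10; inconclusive = replicate mean below 10 yet half the replicates above 10; inactive = over half of replicates below 10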;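 also: wells of about 30 µL received 50 nL stock; many hits fall short of the cut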
# Beta cell apopt: beta cell apoptosis inhibition; protection from apoptosis, % (test concentration not listed); INS-1E cytokine-induced death, ATP luminescence, 48 h; percent of positive-control rescue, neutral wells zero; AID 435005; 300,000 compounds, 0.8% hits;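 active = all replicates at 75% or more, or half of them and the mean; inconclusive = half reach 75% but not the mean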;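 also: 0% = cytokine-treated negative control wells and 100% = positive control rescue; higher means more ATP so stronger rescue from cytokine killing; wells of about 40 µL received 100 nL stock; the first replicate is given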
# T cruzi repl: blocks replication of Trypanosoma cruzi. T. cruzi beta-gal in NIH3T3, luminescence, 90 h. inhibition, % (no concentration beside the values). 300,000 compounds, 1.4% hits. AID 1885;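 active = mean inhibition across valid replicates above about 55%, limit read from the data; inconclusive = mean below that limit but half or more replicates reach it; inactive = mean below it, under half of replicates reach it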;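 also: signal also drops with host cell toxicity which is not excluded here; 0% = plate median of DMSO wells and 100% = zero luminescence signal; higher percent means less beta-gal luminescence so fewer parasites; stock transfer was 50 nL into about 50 µL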
# AF4-AF9 inh: inhibitors of human MLL-AF4/AF9 interaction; P42568; AlphaScreen, biotin-AF4 peptide binding to FLAG-AF9; inhibition, % at 10 µM; 350,000 compounds, 0.47% hits; AID 651704;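 active = every replicate reaching a set inhibition limit, whatever the replicate mean, cut at about 25% in these data; inconclusive = mean inhibition reaches that limit but some replicates miss it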;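 also: 0% = plate neutral control median and 100% = total signal loss; the record names both 10 and 1 µM as test concentration; the first replicate is given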
# Target sequence (P42568 whole entry, looked up): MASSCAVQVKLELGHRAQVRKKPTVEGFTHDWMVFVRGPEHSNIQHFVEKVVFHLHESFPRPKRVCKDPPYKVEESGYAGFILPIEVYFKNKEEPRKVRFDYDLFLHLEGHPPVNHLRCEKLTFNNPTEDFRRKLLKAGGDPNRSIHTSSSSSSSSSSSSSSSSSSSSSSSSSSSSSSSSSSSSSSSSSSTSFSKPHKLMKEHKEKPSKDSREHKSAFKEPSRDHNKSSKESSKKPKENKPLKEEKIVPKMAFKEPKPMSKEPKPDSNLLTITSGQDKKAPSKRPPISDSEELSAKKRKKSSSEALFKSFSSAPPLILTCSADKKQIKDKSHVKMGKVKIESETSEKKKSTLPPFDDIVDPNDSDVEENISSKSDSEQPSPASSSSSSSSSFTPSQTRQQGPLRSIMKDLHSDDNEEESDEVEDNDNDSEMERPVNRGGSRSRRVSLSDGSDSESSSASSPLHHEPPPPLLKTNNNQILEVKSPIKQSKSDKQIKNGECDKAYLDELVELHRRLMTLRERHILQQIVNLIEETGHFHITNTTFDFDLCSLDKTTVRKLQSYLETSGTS
# The depositor's hits bear a star; ? = inconclusive; . = not tested or not shown; & = joins results of further samples.
SMILES,RanGTP-Imp inh,Vif A3G,LANA-H2B inh,Calb FLC,A1 inh,Beta cell apopt,T cruzi repl,AF4-AF9 inh
CCCNC(=O)c1ccc(N2CCC3(CC2)CC(c2cccc(Br)c2)=NO3)c(NC(=O)c2ccccc2)c1,0.2,.,-5.2,14,-0.1,14,57*,4.2
Cc1ccc(C(=O)N/C(=C\c2cccs2)C(=O)NCCc2ccccn2)cc1C,1.2,0%,3.8,-8,1.0,3,18,0.8
CC(C)OCCCNC(=O)c1ccncc1,-2.8,17%,2.2,-34,0.1,0,-2,.
COc1ccccc1-n1c(SCC(=O)Nc2cc(C)on2)nc2c(c1=O)SCC2,-0.1,1%,1.9,35,0.4,7,-5,0.5
O=C(O)C(C(=O)Oc1ccccc1)C(C(=O)O)C(=O)Oc1ccccc1 (stereo not given),.,4%,5.4,.,0.6,0,.,5.1
COC(=O)C(CCSC)NC(=O)c1cc2c(n(-c3ccccc3)c1=O)CC(C)(C)CC2=O (stereo not given),-3.5,5%,-5.6,2,0.2,-6,7,.
COc1ccc(NC(=O)NNC(=O)c2cc3ccccc3cc2O)cc1,-1.3,-8%,-5.6,86*,0.7,2,-4,-1.1
Cc1ccccc1SCC(=O)OCC(=O)NCCNC(=O)COC(=O)CSc1ccccc1C,-1.6,-5%,.,-13,1.1,-1,4,0.9
CCOC(=O)c1ccc(N2CCN(c3ccccc3F)CC2)c(NC(=O)Nc2cccc(OC)c2)c1,-0.6,4%,-2.0,5,1.5,16,70*,-1.8
COc1ccc(Br)cc1C1CC(=O)N2CN(Cc3ccccc3)CSC2=C1C#N (stereo not given),0.5,65%,-1.2,-2,-0.5,-9,2,-11

# The listing continues:
SMILES,RanGTP-Imp inh,Vif A3G,LANA-H2B inh,Calb FLC,A1 inh,Beta cell apopt,T cruzi repl,AF4-AF9 inh
O=C(O/N=C(\c1ccccc1)c1ccccn1)c1cccc2ccccc12,1.6,5%,-0.4,-8,-0.1,-6,-22,.
Cc1ccc(NC(CNS(=O)(=O)c2ccc(Cl)cc2)c2ccccc2)cc1 (stereo not given),-0.8,3%,-0.3,3,0.1,9,37,.
Cc1cc(C)c(S(=O)(=O)Nc2ccc3[nH]c(=O)[nH]c3c2)c(C)c1,2.5,13%,2.3,-4,-0.5,.,-2,-0.7
COc1cc2ccccc2cc1C(=O)N/N=C/c1cccnc1,-2.0,.,-1.4,-7,0.5,0,-3,0.2
O=C(CN1C(=O)NC2(CCCC2)C1=O)Nc1ccc(OC(F)(F)F)cc1,0.1,.,7.6,1,-0.2,-5,-12,-2.0
Fc1cccc(/C=N/N=C/c2cccc(F)c2)c1,-5.9,.,-2.4,-8,-1.9,-3,-11,-1.3
CN(Cc1ccccc1)c1ccc(C(CC(N)=O)NC(=O)c2ccccc2)cc1[N+](=O)[O-] (stereo not given),-4.9,.,5.6,4,-1.2,0,0,4.5
CC/C(=N\O)c1c(O)c2c(n(-c3ccccc3)c1=O)CCCC2,-0.7,1%,-5.6,14,0.8,1,4,-24
COc1ccc(OC)c(S(=O)(=O)N2CCN(Cc3ccccc3)CC2)c1,3.9,.,-103,9,-1.0,7,14,0.5
Clc1ccc(OCCCc2nc(-c3ccncc3)no2)c(Cl)c1,2.8,2%,-1.8,1,0.2,-3,35,.

# (listing goes on)
SMILES,RanGTP-Imp inh,Vif A3G,LANA-H2B inh,Calb FLC,A1 inh,Beta cell apopt,T cruzi repl,AF4-AF9 inh
Cc1ccccc1C(=O)Nc1ccc(C(=O)N/N=C/c2ccccn2)cc1,-2.6,-3%,-0.4,-11,0.2,-3,5,1.2
Nc1nnc(SCC(=O)Nc2cccc(S(=O)(=O)N3CCOCC3)c2)s1,2.2,0%,0.2,-5,-0.2,-4,0,1.2
O=C(COC(=O)c1ccc(Cl)cc1O)Nc1cccnc1Cl,0.6,-11%,3.1,3,-1.2,-15,-5,-9.3
O=C(c1ccco1)N1CCN(c2ncnc3c(-c4ccccc4)nsc23)CC1,0.0,-6%,-3.1,89*,-1.7,6,8,.
COc1ccc(OC2C(=O)N(Cc3ccc(F)cc3)C2c2cc(OC)c(OC)c(OC)c2)cc1 (stereo not given),1.7,10%,0.8,-1,0.6,-3,12,.
Cc1cc(NCCN2CCOCC2)c2ccc3ccccc3c2n1,3.1,-10%,-0.7,-6,0.5,27,65*,0.6
CCOC(=O)C(C(=O)Nc1nc2ccccc2s1)C1CCCCC1 (stereo not given),0.9,1%,1.9,-11,-0.6,-10,-6,.
COc1cc(C(=O)OCC(=O)N2CCCC2)cc2c1OCCO2,.,.,3.7,.,0.7,-3,.,0.7
COc1ccccc1C1=CN(Cc2ccccc2)CCC1=O,.,.,-2.1,.,-0.3,3,.,-2.1
O=C(CN1C(=O)c2ccccc2C1=O)N1CCN(c2nnc(-c3ccccc3)c3ccccc23)CC1,-3.9,8%&-32%,4.3,-7,0.8,2,-19,.

# Ordered by heavy-atom count (descending): 9 of the compounds above.
SMILES,RanGTP-Imp inh,Vif A3G,LANA-H2B inh,Calb FLC,A1 inh,Beta cell apopt,T cruzi repl,AF4-AF9 inh
O=C(CN1C(=O)c2ccccc2C1=O)N1CCN(c2nnc(-c3ccccc3)c3ccccc23)CC1,-3.9,8%&-32%,4.3,-7,0.8,2,-19,.
COc1ccc(OC2C(=O)N(Cc3ccc(F)cc3)C2c2cc(OC)c(OC)c(OC)c2)cc1 (stereo not given),1.7,10%,0.8,-1,0.6,-3,12,.
CN(Cc1ccccc1)c1ccc(C(CC(N)=O)NC(=O)c2ccccc2)cc1[N+](=O)[O-] (stereo not given),-4.9,.,5.6,4,-1.2,0,0,4.5
O=C(c1ccco1)N1CCN(c2ncnc3c(-c4ccccc4)nsc23)CC1,0.0,-6%,-3.1,89*,-1.7,6,8,.
Cc1ccccc1C(=O)Nc1ccc(C(=O)N/N=C/c2ccccn2)cc1,-2.6,-3%,-0.4,-11,0.2,-3,5,1.2
COc1ccc(OC)c(S(=O)(=O)N2CCN(Cc3ccccc3)CC2)c1,3.9,.,-103,9,-1.0,7,14,0.5
CCOC(=O)C(C(=O)Nc1nc2ccccc2s1)C1CCCCC1 (stereo not given),0.9,1%,1.9,-11,-0.6,-10,-6,.
COc1cc(C(=O)OCC(=O)N2CCCC2)cc2c1OCCO2,.,.,3.7,.,0.7,-3,.,0.7
COc1ccccc1C1=CN(Cc2ccccc2)CCC1=O,.,.,-2.1,.,-0.3,3,.,-2.1

# Following part:
canonical_smiles | RanGTP-Imp inh | Vif A3G | LANA-H2B inh | Calb FLC | A1 inh | Beta cell apopt | T cruzi repl | AF4-AF9 inh
COc1ccc([C@H]2CC(=O)C=C(c3ccnc4ccc(Cl)cc34)C2)cc1 | . | . | -1.1 | . | -1.0 | 89* | . | 9.2
COC(=O)c1[nH]c2ccc(C)cc2c1NC(=O)C(C)N1CCN(C2CCCCC2)CC1 (stereo not given) | 2.4 | -10% | 3.7 | -9 | -0.2 | -5 | -13 | .
COc1cc(OC)cc(C(=O)Nc2cccc(NC(=O)c3cc(OC)cc(OC)c3)n2)c1 | -2.3 | . | 4.8 | -1 | ? | -1 | -5 | 4.7
CC(=O)c1cnc(-c2ccccc2)s1 | -0.1 | . | . | 1 | . | . | -21 | -9.8
COc1ccc2nc(NC(=O)c3cccc(N4C(=O)CCC4=O)c3)sc2c1 | . | -9% | 0.0 | . | -3.1 | 4 | . | -5.1
COc1ccccc1N1CCN(C(=O)C2CCCN(S(=O)(=O)c3ccc4c(c3)oc(=O)n4C)C2)CC1 (stereo not given) | -0.9 | -10% | -2.1 | 5 | 0.2 | 30 | -33 | 1.4
COc1ccc(-c2csc(NC(=O)CSc3ccc(Br)cc3)n2)c(OC)c1 | -4.3 | -66% | 5.8 | 1 | 0.7 | -7 | 0 | -0.3
Cc1ccc(C(C)C)c(OCC(=O)Nc2ccc3c(c2)nc(CN2CCCC2)n3C)c1 | 3.0 | 0% | -2.5 | 18 | -0.3 | 3 | 27 | .
CCc1ccc(CN2CCCC(CNC(=O)c3cccc(OC)c3OC)C2)cc1 (stereo not given) | 3.5 | . | 0.9 | 3 | ? | 5 | 61* | 3.8
O=C(Nc1cccc(C(F)(F)F)c1)c1cncs1 | 0.3 | -10% | 1.2 | -4 | -0.2 | -7 | -12 | -3.4
CS(=O)(=O)/C(C#N)=C/c1c(-c2ccccc2)nc2n1CCS2 | -1.0 | 14% | -4.3 | 1 | 0.4 | -4 | 2 | 1.1
CNc1ccc(Cl)cc1C(N)=O | -4.1 | 5% | 2.1 | 3 | 1.2 | -3 | -15 | -3.8
O=C(c1ccc2c(c1)OCO2)N1CCN(c2ccccn2)CC1 | 4.9 | 5% | 0.3 | -1 | 0.9 | -7 | 5 | .
C=CCn1c(SCC(=O)NC2CCCc3ccccc32)nnc1-c1ccncc1 (stereo not given) | 2.6 | . | 3.2 | -11 | -0.4 | . | 1 | .
Cc1ccc(NC(=O)CCC(=O)OCC(=O)c2ccc(Oc3ccc([N+](=O)[O-])cc3)cc2)c(C)c1 | 1.8 | -2% | -0.7 | 3 | 1.7 | -1 | 4 | .
Cc1cc(CNC(=O)Cc2ccccc2)c2ccccc2n1 | 0.2 | 5% | 3.6 | -13 | 1.4 | 12 | -8 | -1.3
COc1cc(C(=O)NCCC(=O)NCCCN2CCCCC2C)cc(OC)c1OC (stereo not given) | 3.8 | 0% | -2.7 | 30 | 0.8 | -8 | -19 | 5.5
N/C(=N\OC(=O)CC1CCCCC1)c1ccc(Cl)cc1 | -6.6 | 28% | -1.0 | -6 | -0.5 | . | 4 | -2.6
CSc1ncc(CN2CCCC(C(=O)c3ccc(C(C)(C)C)cc3)C2)cn1 (stereo not given) | ? | 0% | -9.2 | -15 | 0.2 | 0 | 16 | 5.3
CC(=O)Nc1ccc(S(=O)(=O)N2CCCN(S(=O)(=O)c3ccc(NC(C)=O)cc3)CC2)cc1 | 2.6 | 21% | 1.8 | ? | 1.0 | -3 | 2 | .
